# Assay outcomes from PubChem BioAssay.
# GALK inh = inhibitors of human galactokinase (GALK) | P51570 | recombinant GALK, Kinase-Glo ATP luminescence, 1 h | Potency, µM (top dose mostly 57.5 µM), for the others: top-dose activity, negative = inhibition, usual class: inhibitors | 44,000 tested, under 10 active;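 note: plate controls were full GALK reaction for no effect and reaction lacking GALK for full effect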
# Target sequence (P51570 whole entry, looked up): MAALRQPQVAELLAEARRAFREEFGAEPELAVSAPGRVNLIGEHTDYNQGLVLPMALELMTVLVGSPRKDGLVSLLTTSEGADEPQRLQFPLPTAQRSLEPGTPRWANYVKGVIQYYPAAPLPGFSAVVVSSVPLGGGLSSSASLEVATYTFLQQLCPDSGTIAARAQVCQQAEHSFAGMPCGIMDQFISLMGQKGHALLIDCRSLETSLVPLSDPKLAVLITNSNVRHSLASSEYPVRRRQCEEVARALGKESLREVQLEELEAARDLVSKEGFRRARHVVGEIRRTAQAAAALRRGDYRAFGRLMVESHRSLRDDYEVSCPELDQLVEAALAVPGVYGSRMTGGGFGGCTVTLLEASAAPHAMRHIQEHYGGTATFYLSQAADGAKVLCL
#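 Luminescent ATP-depletion readout (Kinase-Glo Plus, 10 min) after 1 h RT reaction of 5 nM GALK, 35 uM ATP, 100 uM galactose, pH 8.0 HEPES buffer. Decreased kinase activity scored as inhibition.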
# FH mod = Identification of activators of human fumarate hydratase by quantitative high-throughput screening | Fumarate hydratase, mitochondrial (Homo sapiens), P07954 | FH coupled MDH/diaphorase resazurin fluorescence, 15 min | Potency, µM (top dose mostly 79.9 µM), for the others: at the top dose activity change, negative = inhibition, actives largely listed as inhibitors | actives 0.22% (n = 54,000); note: potency is the fitted concentration of half-maximal effect; % is set by controls: 0 for no effect and ±100 for the full control effect; the screen sought activators but most active calls are inhibition curves; nearly all actives have a fitted effect of over 45% in size
# B2AR arrestin ag = beta-arrestin recruitment by human beta2-adrenergic receptor ligands. P07550. HTLA Tango cells, beta-arrestin recruitment, luciferase luminescence, 18 h. Potency, µM (doses to about 46.1 µM), inactives show at the top dose activation, actives largely listed as activators. 44,000 tested, under 10 active. AID 1347077;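 note: potency is the fitted concentration of half-maximal effect; 0% = DMSO and full agonism = EC100 isoproterenol or metaproterenol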
#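 Receptor–beta-arrestin recruitment read by tTA-responsive luciferase: compound titrations (up to 46 µM) incubated 18 h with Tango cells, then luminescent substrate 15 min at room temperature. Concentration-response fits classified by r2, efficacy and activity.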
# p53null 39C kill = p53 null cell cytotoxicity, nonpermissive temperature; actives 0.97% (n = 55,000); Potency, µM (top dose mostly 46.1 µM), inactives show top-dose activity, negative = cell killing, hits mostly cytotoxic; H1299 p53-null (neo) cells, 39C, ATPlite viability, 24 h;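 note: potency is the fitted concentration of half-maximal effect; 0% = DMSO only and -100% = full killing by 100 µM tamoxifen; nearly all actives have a fitted effect of over 50% in size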
#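 ATP-luminescence viability readout (ATPlite, 20 min RT) after 24 hr compound treatment at 39C of H1299-neo or H1299-p53A138V cells; titration up to 46 uM; normalized to DMSO and 100 uM tamoxifen; Hill-fit AC50.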
# p53null 32C tox = kills p53 null cells at the permissive temperature; actives 0.62% (n = 55,000); AID 903; Potency, µM (doses to about 46.1 µM), without a hit: at the highest dose activity change, negative = cytotoxicity, actives largely listed as cytotoxic; H1299-neo p53 null cells, ATP luminescence, 24 h, 32C;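 note: potency is the fitted concentration of half-maximal effect; 0% = DMSO only and -100% = full killing by 100 µM tamoxifen; nearly all actives have a fitted effect of over 55% in size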
#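 Cells lacking p53 (H1299-neo) are plated at 600 per well and allowed to settle overnight at 37C. Test compounds (up to 46 uM) are added and held 24 hours at 32C, then ATP is quantified by luminescence.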
# TSG101-PTAP inh = inhibitors of HIV-1 PTAP binding to human TSG101, validation | Q99816 | Fluorescence polarization, FITC-PTAP peptide/Tsg101, 20 min | Potency, µM (doses to about 115 µM), without a hit: at the top dose activity change, negative = inhibition, most hits filed as inhibitors | 44,000 tested, under 10 active | AID 1347069; note: potency is the fitted concentration of half-maximal effect; 0% is about no effect
# Target sequence (Q99816 whole entry, looked up): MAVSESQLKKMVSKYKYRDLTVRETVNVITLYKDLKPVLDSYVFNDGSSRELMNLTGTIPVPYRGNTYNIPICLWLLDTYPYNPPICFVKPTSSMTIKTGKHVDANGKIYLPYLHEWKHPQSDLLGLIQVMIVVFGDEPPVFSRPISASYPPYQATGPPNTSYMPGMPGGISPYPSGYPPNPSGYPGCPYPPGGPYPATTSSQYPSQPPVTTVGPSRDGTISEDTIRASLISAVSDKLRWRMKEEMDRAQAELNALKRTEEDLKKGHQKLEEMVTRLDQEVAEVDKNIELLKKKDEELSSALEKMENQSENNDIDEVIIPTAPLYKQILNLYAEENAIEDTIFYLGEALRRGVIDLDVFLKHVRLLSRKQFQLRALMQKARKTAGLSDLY
#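 Fluorescence polarization: Tsg101 binding domain (10 uM final) in 10 mM HEPES pH 7.5, 0.15 M NaCl, 0.01% Tween 20, 3 mM EDTA, 0.1 mM TCEP; compounds pinned; FITC-PTAP peptide 50 nM final; 20 min, r.t.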
# * marks the source's active call; other numbers are inactive results; ? = inconclusive; · = no result given; [ ] = remark or other dose. Calls come from the whole dose curve; as a rule, active = well fitted curve in the direction sought with a large enough effect; inconclusive = small, poorly fitted or top-dose-only effect, or another doubt; inactive = no such curve, though single readings can be large; an effect the other way counts as inactive or inconclusive.
SMILES,GALK inh,FH mod,B2AR arrestin ag,p53null 39C kill,p53null 32C tox,TSG101-PTAP inh
CN(C)C1(CNC(=O)COc2ccc(C(C)(C)C)cc2)CCCCC1,1.4%,5.8%,-4.9%,4.2%,-1.3%,1.7%
CCOC(=O)CSc1nc(-c2ccccc2)cc(C(F)(F)F)c1C#N,-0.2%,-2.8%,-1.4%,6.0%,-2.2%,-0.7%
O=C(CSc1nc2ccsc2c(=O)n1-c1ccc(Br)cc1)NCc1ccccc1,2.6%,-2.5%,-1.0%,6.3%,-1.8%,-0.4%
Cc1cccc(-c2cc(-c3ccccc3)nc(SCC(=O)Nc3ccccc3)c2C#N)c1,8.1%,25.9%,0.5%,-23.5%,9.8%,-0.9%
CCCCOC(=O)c1ccc(NC(=O)c2ccc3c(c2)CCCN3S(C)(=O)=O)cc1,2.7%,?,-0.3%,15.8%,12.0%,-2.5%
CCC(Cn1nnc2ccccc2c1=O)NC(=O)Nc1ccc(C)cc1C (stereo not given),0.7%,-2.6%,-1.3%,-5.5%,-3.2%,-0.6%
CCC(C)Cn1c(COc2ccc(OC)cc2)nc2ccccc21 (stereo not given),?,-8.6%,-0.4%,?,-6.0%,-7.1%
Cc1ccc(CNC(=O)Cn2ccn(-c3cccc(Cl)c3)c(=O)c2=O)cc1,4.3%,5.0%,-0.4%,-12.8%,4.5%,0.9%
CC(=O)c1ccc(NC(=O)CCc2c(C)nc3cc(-c4ccc(Cl)cc4)nn3c2C)cc1,7.9%,-21.3%,0.5%,-5.5%,0.6%,0.6%
Cc1ccc2nc(Cl)c3cc(C(=O)N4CCCCC4)sc3c2c1,-3.0%,?,-0.9%,9.4%,-4.1%,1.0%
COc1ccc(-c2cc(C(F)(F)F)nc(NCCc3ccccc3)n2)cc1OC,-5.6%,-14.8%,0.0%,-7.7%,-4.7%,-2.9%
Cc1ccc(NC(=O)CSc2nnc3ccc4ccccc4n23)cc1,3.9%,-19.4%,-0.5%,5.8%,-8.9%,-1.9%
CC(=O)c1cc(-c2ccc(F)cc2)n(CC(=O)NC2CCC(C)CC2)c1C (stereo not given),2.5%,-6.9%,2.1%,9.8%,-12.9%,2.1%
COc1ccc(NC(=O)CCn2c(-c3ccc(F)cc3)cc(C(C)=O)c2C)c(OC)c1,0.5%,-21.1%,2.2%,33.2%[activator],1.3%,-0.4%
COc1ccccc1C(=O)NC1(C(F)(F)F)C(=O)Nc2c1c(=O)[nH]c(=O)n2-c1ccccc1 (stereo not given),6.6%,-0.9%,1.0%,-2.5%,-3.2%,-0.4%
Cc1cc2oc(=O)c(CC(=O)NCCc3ccccc3F)c(C)c2c2occ(C(C)(C)C)c12,3.0%,-31.9%,0.8%,-10.2%,8.1%,-0.3%
CCOC(=O)c1noc2ncnc(N3CCC(C)CC3)c12,?,0.6%,-0.3%,-6.4%,-0.6%,-3.6%
CCN(CC)CC1CCN(c2ncc3ncnc(Nc4ccc(F)c(Cl)c4)c3n2)CC1,·,-3.8%,·,·,·,·
Cc1ccccc1CNC(=O)C1=Cc2ccccc2OC1,-4.8%,-12.6%,-0.1%,-16.3%,-5.1%,-3.6%
CC1=C(C(=O)Nc2cccnc2)C(c2ccccc2)n2nc(SCc3ccccc3)nc2N1 (stereo not given),-1.9%,2.8%,-0.4%,-4.9%,2.6%,-2.0%

# 2 compounds from above, reduced to p53null 32C tox, GALK inh and FH mod:
SMILES	p53null 32C tox	GALK inh	FH mod
Cc1ccccc1CNC(=O)C1=Cc2ccccc2OC1	-5.1%	-4.8%	-12.6%
CC1=C(C(=O)Nc2cccnc2)C(c2ccccc2)n2nc(SCc3ccccc3)nc2N1 (stereo not given)	2.6%	-1.9%	2.8%

# (continued)
SMILES,GALK inh,FH mod,B2AR arrestin ag,p53null 39C kill,p53null 32C tox,TSG101-PTAP inh
COC(=O)c1nnn(CC(=O)Nc2ccc(Br)c(C)c2)c1N,7.1%,-4.9%,-1.5%,-4.3%,2.7%,-3.5%
CCOCCCN1C(=O)c2[nH]nc(-c3ccccc3O)c2C1c1ccc(CC)cc1 (stereo not given),1.9%,-26.4%,7.08µM*,?,1.1%,-5.9%
O=c1oc2ccc(Br)cc2cc1-c1csc(-c2ccc(Cl)cc2)n1,-0.9%,-7.1%,-3.4%,14.5%,-1.2%,-1.0%
O=C(Nc1ccc2c(c1)CCCN2C(=O)c1cccs1)c1ccc(F)c(F)c1,-2.3%,-28.8%,-0.1%,11.5%,0.1%,-10.0%
O=C(Nc1ccc2c(c1)CCCN2C(=O)c1cccs1)c1c(F)cccc1F,3.0%,-21.2%,-1.0%,?,-3.4%,0.5%
COCCN(CCOC)C(=O)c1cc2c(=O)n3ccccc3nc2n1C,-3.2%,5.2%,1.2%,-1.3%,5.6%,-3.0%
COc1ccc(CNC(=O)c2ccc3c(c2)N=C(C)c2c(C)ccc(C)c2S3)cc1,8.0%,-14.0%,0.9%,51.5%[activator],23.2%,0.7%
CCCCN(C)C(=O)c1ccc2c(c1)N(Cc1ccc(F)cc1)C(=O)c1ccccc1S2(=O)=O,-0.9%,-14.5%,-0.4%,22.0%,2.2%,-5.3%
COc1ccc(-c2cc3nc(C)c(CCC(=O)Nc4ccccc4C(C)=O)c(C)n3n2)c(OC)c1,10.5%,-5.9%,0.4%,-23.5%,-6.6%,-4.1%
COc1cc2c(cc1NS(=O)(=O)c1cccc(C#N)c1)n(C)c(=O)n2C,-2.0%,-18.4%,0.2%,7.6%,0.5%,-5.7%
COCCCN1C(=O)c2[nH]nc(-c3ccccc3O)c2C1c1ccc(OCc2ccccc2)cc1 (stereo not given),0.4%,?,?,?,48.3%[activator],-0.8%
CSc1nc2sc3c(c2c(=O)n1-c1ccc(C)c(Cl)c1)CCN(C(C)=O)C3,6.7%,-14.2%,0.7%,-1.7%,-3.1%,-2.1%
COc1ccc(S(=O)(=O)N2CCCCC2)cc1C(=O)Nc1cccc(C(F)(F)F)c1,-1.4%,-12.3%,-1.2%,18.8%,-5.4%,0.7%
CCc1ccc(C(=O)c2cn(CC(=O)Nc3ccc4c(c3)OCO4)c3ccc(CC)cc3c2=O)cc1,5.9%,-15.7%,0.5%,?,-3.5%,1.0%
N#Cc1cccc(Nc2ncnc3c2cnn3-c2cccc(Cl)c2)c1,-1.6%,-15.5%,0.3%,4.5%,3.9%,-0.1%
Cc1nn2c(-c3ccco3)ccnc2c1-c1ccc(Br)cc1,8.7%,-9.5%,-0.8%,·,·,-0.1%
CCOC(=O)CSc1nc(-c2ccc(OCC)cc2)cc(C(F)(F)F)c1C#N,4.4%,5.7%,-0.2%,-8.3%,-0.8%,-0.3%
COc1cccc(CNC(=O)CN2C(=O)N(c3c(C)cccc3C)S(=O)(=O)c3ccccc32)c1OC,-1.6%,-15.3%,0.7%,-17.3%,-5.2%,2.9%
CCCCc1nc2ccccc2n2c(-c3ccc(OC)cc3)c3c(=O)n(C)c(=O)n(C)c3c12,3.3%,-23.2%,-1.9%,5.0%,10.8%,-2.7%
CC(C)Cn1cc(NC(=O)NCc2ccccc2Cl)c2ccccc2c1=O,0.9%,?,0.5%,-22.3%,1.3%,-4.8%
COc1ccc(C2NC(=O)NC(C)=C2C(=O)Nc2cc(C)cc(C)c2)c(OC)c1 (stereo not given),0.0%,-4.2%,-1.5%,5.8%,2.4%,0.2%
COc1ccc(CC(=O)Nc2nc3c(s2)CCCC3)cc1,?,-12.9%,-4.0%,1.5%,-14.1%,1.0%
Clc1ccc(OCc2nc3ccccc3n2Cc2ccccc2)c(Cl)c1,0.0%,-8.3%,-0.2%,-7.5%,-11.5%,1.1%
CCc1cc2c(cc3c(=O)n(CC(=O)NC4CCC(C)CC4)ncn32)s1 (stereo not given),-2.2%,1.7%,-1.3%,-20.7%,-10.4%,-2.0%
FC(F)(F)Oc1ccc2c(c1)NC(c1ccncc1)=NC(c1cccs1)=N2,-11.7%,?,0.9%,8.4%,19.4%,-13.8%
Cc1cccc(NC(=O)Cn2cnc(S(=O)(=O)N3CCCC3)c2)c1C,-0.6%,28.7%,0.0%,-26.4%,-2.8%,-0.8%
Cn1c(=O)n(C)c2cc(N3CCOCC3)c(NS(=O)(=O)c3cccc(C#N)c3)cc21,-3.0%,15.8µM*,0.2%,-10.0%,-9.1%,-7.4%
COc1ccc(CCNC(=O)Cn2cc(S(=O)(=O)Cc3cccc(Cl)c3)c3ccccc32)cc1OC,1.1%,-30.5%,0.9%,-27.5%,18.9%,3.0%
Cc1ccc(CNC(=O)Nc2cn(CC(C)C)c(=O)c3ccccc23)cc1,1.8%,?,?,-12.2%,3.1%,0.8%
O=C(CSc1nccn1Cc1ccccc1)NCc1ccccc1Cl,-0.7%,-4.2%,0.1%,24.6%,-4.6%,-0.8%

# Pulled by structure from the entries so far (four):
SMILES,GALK inh,FH mod,B2AR arrestin ag,p53null 39C kill,p53null 32C tox,TSG101-PTAP inh
COc1ccc(C2NC(=O)NC(C)=C2C(=O)Nc2cc(C)cc(C)c2)c(OC)c1 (stereo not given),0.0%,-4.2%,-1.5%,5.8%,2.4%,0.2%
COc1ccc(CC(=O)Nc2nc3c(s2)CCCC3)cc1,?,-12.9%,-4.0%,1.5%,-14.1%,1.0%
Cn1c(=O)n(C)c2cc(N3CCOCC3)c(NS(=O)(=O)c3cccc(C#N)c3)cc21,-3.0%,15.8µM*,0.2%,-10.0%,-9.1%,-7.4%
Cc1cccc(NC(=O)Cn2cnc(S(=O)(=O)N3CCCC3)c2)c1C,-0.6%,28.7%,0.0%,-26.4%,-2.8%,-0.8%

# Following part:
SMILES,GALK inh,FH mod,B2AR arrestin ag,p53null 39C kill,p53null 32C tox,TSG101-PTAP inh
Cc1oc2ncnc(N3CCOCC3)c2c1C(=O)N1CCN(c2cccc(C(F)(F)F)c2)CC1,3.3%,8.6%,1.6%,-7.0%,-3.3%,-0.1%
Cc1cc(C)cc(C(=O)Nc2cccc(-c3nc4ncccc4o3)c2C)c1,7.2%,-26.0%,0.8%,3.1%,-1.8%,0.2%
Cc1cccc(Cn2c(COc3ccccc3)nc3ccccc32)c1,0.5%,-19.4%,0.7%,-6.1%,-7.6%,-11.8%
CCC(Cn1nnc2ccccc2c1=O)NC(=O)Nc1ccccc1OC (stereo not given),-1.0%,-15.0%,-1.3%,0.2%,-0.7%,0.4%
CCc1cc2c(cc3c(=O)n(CC(=O)NC(C)c4ccccc4)ncn32)s1 (stereo not given),-3.8%,3.4%,0.4%,-13.3%,-6.2%,1.5%
CCOc1ccccc1NC(=O)Cn1c(=O)ccc2cc(S(=O)(=O)N3CCCC3)ccc21,1.0%,0.6%,-0.4%,3.9%,-2.2%,2.6%
COC(=O)c1nnn(CC(=O)NC(=O)Nc2ccccc2F)c1C(=O)OC,-2.7%,-7.2%,0.8%,-0.1%,-1.4%,0.9%
CC(=O)c1cccc(Nc2ncnc3c2cnn3-c2cccc(Cl)c2)c1,-0.1%,13.0%,3.9%,0.8%,-3.0%,2.4%
CCOc1ccc(NC(=O)CSc2nc(-c3ccc(F)cc3)cc(C(F)(F)F)c2C#N)cc1,3.0%,1.3%,1.0%,14.1%,-0.7%,2.9%
COc1ccc(NC(=O)c2cc3c(=O)n(Cc4cccs4)ccc3nc2C)cc1,0.3%,-11.8%,-0.1%,-2.6%,9.4%,-4.1%

# Not all compounds are listed, so the mix of outcomes need not match the whole.
